# gsp antagonist: antagonists of gsp mutant (McCune-Albright syndrome); AID 624288; gsp-mutant cells, cAMP HTRF, 30 min; control for the full effect not named in the record; actives 0.4% (n = 340,000); Potency, µM (top dose mostly 76.9 µM), for the others: top-dose activity change, negative = inhibition, usual class: inhibitors; active = falling curve of any shape with a large fitted effect; inconclusive = falling curve, mostly with a smaller effect; inactive = flat or rising curve; cell line not stated here;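 further: intracellular cAMP measured with PDE inhibitor Ro 20-1724 present during compound exposure; potency means the concentration at half of the fitted maximal effect; on the % scale 0 is the no-effect control and ±100 the full control effect; nearly all actives have a fitted effect of over 65% in size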
#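 Cells in G418 medium, seeded 16-24 h, 37C; buffer exchange to DPBS + 1 mM CaCl2, 0.5 mM MgCl2, 0.05% BSA; cpds in DMSO + […] (300 uM stock), 30 min 37C; HTRF cAMP detection.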
# D2 potentiator: human D2 receptor positive allosteric modulation | AID 624464 | actives 0.23% (n = 360,000) | potentiation, % (test concentration not listed) | DiscoveRx D2 beta-arrestin cells, luminescence, 90 min; 100% = 57 uM dopamine signal; active = potentiation of 50% or more; inconclusive = 30% to 50%; inactive = 30% or less;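 further: compound concentration not given in the record; tested on top of an EC20 dose of dopamine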
# Target sequence (P14416 whole entry, looked up): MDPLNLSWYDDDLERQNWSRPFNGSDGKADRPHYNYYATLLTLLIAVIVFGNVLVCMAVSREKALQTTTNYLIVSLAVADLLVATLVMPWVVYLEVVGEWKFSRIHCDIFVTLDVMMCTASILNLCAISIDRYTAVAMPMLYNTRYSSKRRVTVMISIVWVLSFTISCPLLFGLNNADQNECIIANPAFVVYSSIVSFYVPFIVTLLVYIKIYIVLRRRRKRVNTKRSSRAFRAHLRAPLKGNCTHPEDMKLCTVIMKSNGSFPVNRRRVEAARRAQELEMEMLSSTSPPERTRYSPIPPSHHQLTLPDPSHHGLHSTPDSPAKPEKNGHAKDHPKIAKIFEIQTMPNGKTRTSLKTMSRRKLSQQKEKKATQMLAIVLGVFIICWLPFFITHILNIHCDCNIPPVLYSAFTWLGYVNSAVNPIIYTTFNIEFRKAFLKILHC
#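 PathHunter D2 cells, attached overnight at 37 deg C, received compound in DMSO plus dopamine at EC20 (50 nM final) for 90 min at 37 deg C. Beta-arrestin recruitment was read as luminescence after 1 h with detection reagent at ambient temperature.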
# Sfp PPTase inh: inhibitors of Bacillus subtilis Sfp phosphopantetheinyl transferase; Q9F4F7; Biochemical Sfp PPTase activity, qHTS; Potency, µM, for the others: max response, negative = inhibition, hits mostly inhibitors; actives 3.5% (n = 310,000); AID 1490; active means well fitted inhibition curve with a large enough effect; inconclusive means small, poorly fitted or top-dose-only effect, or another doubt; inactive means no such curve, though single readings can be large or run the other way;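 further: the enzyme is Sfp with the accession as filed and its product quenches rhodamine fluorescence; potency means the concentration at half of the fitted maximal effect; 0% = enzyme reaction without inhibitor and -100% = no enzyme wells; top concentration of the series not given in the record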
#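 Fluorescence-quenching assay with 15 nM Sfp, 5 uM rhodamine-CoA and 12.5 uM BHQ-2-labelled ybbR peptide in pH 7.6 Hepes/MgCl2 buffer. Enzyme was pre-incubated with compound for 15 min at room temperature. Rate was taken from the 30-min fluorescence change (525/598 nm).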
# Menin MLL FP FL: displaces fluorescein MLL peptide from human menin | 290,000 tested, under 10 active | AID 1766 | FP activity change, % at 61.4 µM | Fluorescence polarization, fluorescein-MLL peptide displacement from menin; inconclusive = falling polarisation curve, or a change in total fluorescence; inactive = total fluorescence flat and polarisation flat or rising; no compound was filed as active; the % refers to the polarisation; negative = inhibition;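 further: % of control where 0% means no effect; inhibitors lower the polarisation; unlabelled MLL peptide was the positive control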
# TRPV1 PAM: potentiators of human vanilloid receptor 1 (TRPV1). TRPV1-expressing cells, Fluo-8 calcium influx, capsaicin EC20 potentiation; host cell line not named in the record; control for the full effect not named in the record. potentiation, % at 8.33 µM. actives 0.02% (n = 320,000); active means potentiation above 80%; inconclusive means 30% to 80%; inactive means below 30%; further: 0% is about no effect
#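 Fluo-8 calcium influx in TRPV1-expressing cells, kinetic read (ex 480/em 520 nm). Compound added and read 3 min for agonist activity, followed by capsaicin at EC20 final and 2 min further read for enhancement.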
# gsp ag: gsp mutant agonism; gsp mutant cells, cAMP HTRF, 30 min; control for the full effect not named in the record; Potency, µM (doses to about 76.9 µM), for the others: at the top dose activation (cAMP increase), hits mostly activators; actives 0.13% (n = 340,000); AID 624287; active = well fitted activation curve with a large enough effect; inconclusive = small, poorly fitted or top-dose-only effect, or another doubt; inactive = no such curve, though single readings can be large or run the other way; cell line not stated here;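 further: phosphodiesterase inhibitor Ro 20-1724 added with compounds to block cAMP breakdown; potency means the concentration at half of the fitted maximal effect; nearly all actives have a fitted effect of over 60% in size; about a fifth of the inactives were tested at one dose only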
#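 Cells in DMEM/10% FBS with G418 were pretreated with compounds in DMSO plus […] (300 uM stock) for 30 min at 37C. cAMP was measured by HTRF (cAMP-d2 plus anti-cAMP antibody-K) after 30 min at room temperature.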
# ClpP mod: qHTS Assay for Activators of ClpP; ATP-dependent Clp protease proteolytic subunit (Bacillus subtilis (strain 168)), P80244; purified B. subtilis ClpP, FRET peptide cleavage, 20 min; actives 1.9% (n = 340,000); Potency, µM (doses to about 57.5 µM), for the others: at the highest dose activity change, negative = active; active = well fitted falling curve with a large enough effect; inconclusive = small, poorly fitted or top-dose-only effect; inactive = no such curve, though single readings can be large or run the other way; further: potency means the concentration at half of the fitted maximal effect; the source files actives as falling curves though it sought activators and does not explain the sign; nearly all actives have a fitted effect of over 65% in size; many hits overshoot -100%
# Target sequence (P80244 whole entry, looked up): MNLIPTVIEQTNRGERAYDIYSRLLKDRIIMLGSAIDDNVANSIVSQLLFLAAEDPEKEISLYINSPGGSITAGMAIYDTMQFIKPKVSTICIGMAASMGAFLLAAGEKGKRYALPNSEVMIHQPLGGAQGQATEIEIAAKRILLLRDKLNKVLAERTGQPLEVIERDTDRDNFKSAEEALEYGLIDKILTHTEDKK
#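 FRET quenching reversal measured ClpP activation: 10 microg/mL B. subtilis ClpP at pH 8 with the FRET-FV decapeptide, read at 430 nm after 320 nm excitation. The 20-min minus 0-min signal was scaled between DMSO/no-enzyme wells and ADEP (5.8 microM final).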
# Starred values were filed as active, the others as inactive; ? = inconclusive; · = no result given; & = joins results of further samples; [ ] = remark or other dose.
item	SMILES	TRPV1 PAM	ClpP mod	Menin MLL FP FL	gsp ag	gsp antagonist	Sfp PPTase inh	D2 potentiator
1	Cn1cc(CC(=O)NCCCN2CCCC2=O)c2ccccc21	·	?	2.9	4.2%	6.4%	8.5%	-2.3
2	CCC(C)(C)NC(=O)C(c1ccccc1)N(Cc1cccnc1)C(=O)c1csnn1 (stereo not given)	22.1	0.3%	3.1	-43.3%[inhibitor]	-0.4%	12.1%	-5.6
3	CCCCN(CCCC)CCNC(=O)CNC(=O)c1cccs1	-6.2	-0.2%	-2.1	1.7%	9.4%	15.2%	-15.3
4	C/C(=N/N1CCN(c2ccccc2)CC1)c1cccc([N+](=O)[O-])c1	24.6	·	0.7	-17.0%	5.8%	7.5%	-3.2
5	COc1ccc(C)cc1NC(=O)NCCC1=CCCCC1	-5.6	-1.1%	1.1	0.2%	-19.0%	-9.2%	-21.5
6	COc1cc(C2C3CN(C)CC=C3C(C#N)=C(N)C2(C#N)C#N)ccc1OC(C)C (stereo not given)	1.0	-18.6%	?	13.9%	-11.0%	10.1%	-43.7
7	Cc1cc(C)c(NC(=O)CSc2nc3ncc(Cl)cc3[nH]2)c(C)c1	-5.8	-1.0%	-2.3	-3.3%	-0.4%	0.5%	0.5
8	CC1=C(C#N)C(c2ccc3ncccc3c2)C(C#N)=C(C)N1	-8.8	-0.9%	3.2	?	4.2%	13.9%	-5.5
9	NC(=O)Nc1ccc(C(=O)OCC(=O)N(Cc2ccccc2)C2CCS(=O)(=O)C2)cc1 (stereo not given)	9.3	·	-7.5	-8.7%[15.4 µM]	·	17.2%	-19.9
10	O=C(CSc1n[nH]c(=O)[nH]c1=O)Nc1ccccc1C(=O)c1ccccc1	-4.6	·	-0.4	-12.5%[15.4 µM]	-5.9%	7.0%	2.4
11	Cc1nn(S(=O)(=O)c2ccc(C(C)C)cc2)c(C)c1S(=O)(=O)N1CCOCC1	5.5	0.0%	0.9	14.4%	-1.8%	20.4%	-2.4
12	COc1ccc(-c2nc(C(=O)O)cs2)cc1OC	?	·	0.2	?	7.6%	-25.0%	-1.8
13	O=C(c1ccc(Cl)cc1)N1CCCCC(Cl)C1=O (stereo not given)	-4.6	·	-4.7	1.9%[15.4 µM]	3.0%	10.5%	-6.9
14	S=c1[nH]nc(-c2cccs2)n1/N=C/c1cn(-c2ccccc2)nc1-c1ccccc1	-12.6	-0.9%	1.8	8.4%[15.4 µM]	?	-0.5%	-12.9
15	CCCOc1ccc(C(=O)N(Cc2cccs2)C2CCS(=O)(=O)C2)cc1 (stereo not given)	-5.8	-2.5%&-0.7%	·	-6.2%[15.4 µM]	-0.5%	5.3%	-8.9
16	COc1ccc(/C=C2\SC(=S)N(NC(=O)c3csc4c3CCCC4)C2=O)cc1	-24.1	-0.3%	-1.0	-8.0%[15.4 µM]	7.8%	-3.2%	-7.9
17	Cc1ccc(C(=O)SC2=NCCS2)cc1	-28.8	0.7%	-0.2	7.4%	9.8%	-0.7%	-12.1
18	Cc1cc(C)nc(/N=C2\NC(=O)CC3C(=O)NCCN23)n1 (stereo not given)	?	-2.7%	0.2	?	10.7%	-3.4%	-0.8
19	O=C(O)C(C(=O)O)=C1C2CC3CC(C2)CC1C3	-5.3	0.7%	0.0	-11.3%[15.4 µM]	13.2%	14.0%	-3.6
20	C[C@H](NC(=O)c1ccc2c(c1)OCO2)c1nnc2ccccn12	-5.9	-6.1%	-3.2	?	14.2%	0.1%	-5.7
21	CS(=O)(=O)Nc1ccc(C(=O)Nc2ccccc2C(=O)NCc2ccco2)cc1	-7.7	-1.7%	·	?	-9.0%	9.3%	-2.3
22	CC1(C)CC(=O)C(C2=NC3(CCCCCC3)Cc3ccccc32)=C(O)C1	-22.9	0.2%	-0.4	-25.5%	4.2%	6.2%	-24.0
23	O=C(NCc1ccccn1)C1CCCN(S(=O)(=O)c2ccccc2)C1 (stereo not given)	0.9	1.3%	-1.5	-14.4%	8.5%	13.2%	-16.6
24	CCOC(=O)CCCNC(=O)CN1C(=O)NC2(CCCCCC2)C1=O	-22.9	0.4%	4.3	-8.4%	-2.3%	18.6%	0.3
25	COc1ccc(CNC(=O)C(C)NCc2ccccc2Cl)cc1 (stereo not given)	20.0	-1.4%	-5.2	6.3%[15.4 µM]	6.9%	-7.5%	-8.4
26	O=C(NC1CC1)c1ccc(N2CCCCC2)c([N+](=O)[O-])c1	-4.7	-2.0%	·	28.5%	-3.6%	17.1%	-5.8
27	Cc1ccc(F)cc1NC(=O)CSCc1c(C)noc1C	5.3	0.1%	·	-14.5%	9.4%	·	-1.8
28	C=CCn1c(SCC(=O)Nc2ccccc2F)nc2ccccc2c1=O	-3.9	1.7%	7.5	8.8%	-5.8%	15.1%	-2.5
29	CC(=O)c1cccc(NC(=O)N2C3CCC2CC(NC(=O)C2CC2)C3)c1 (stereo not given)	22.2	0.0%	-0.9	-21.5%	6.4%	24.2%	-5.1
30	Cc1ccc(Sc2ncccc2C(=O)NCC(c2ccc(F)cc2)N2CCOCC2)cc1C (stereo not given)	?	1.4%	·	-3.0%	9.1%	·	-16.0
31	COC(=O)c1ccccc1C(=O)N1CCOCCOCCOCC1	-11.2	-2.6%	·	-6.1%	7.5%	25.9%	-9.0
32	O=C(CNc1cc(S(=O)(=O)N2CCOCC2)ccc1N1CCCC1)Nc1ccc(Cl)cc1	·	-1.9%	·	8.1%	-14.1%	·	-3.9
33	Cc1ccccc1C(=O)Nc1nnc(SCC(=O)NC2CC2)s1	16.3	0.5%	·	10.9%	-6.3%	13.3%	1.8
34	CCOC(=O)Cn1c(-c2ccccc2)nc2ccccc2c1=O	-15.5	-2.5%	3.6	-59.3%[inhibitor]	-25.3%	-4.4%	-11.0
35	CC(=O)c1ccc(NC(=O)Cn2nc(C)cc2C)cc1	12.1	-1.2%	3.0	1.8%	18.8%	22.2%	-0.5
36	O=[N+]([O-])c1ccc(N2CCN(C(=S)Nc3ccccc3)CC2)cc1	-36.2	·	0.9	-3.2%[15.4 µM]	12.7%	-5.3%	9.2
37	Cc1c(C#N)c(N)nc2c3c(sc12)NC(=O)CC3c1ccc(F)cc1 (stereo not given)	12.8	-0.9%	-1.6	-3.5%	10.4%	5.9%	-4.2
38	CCC1C(=O)N=C(SCC(=O)Nc2cccc3ccccc23)NC1=O (stereo not given)	-2.2	-17.7%	-3.9	-32.8%[inhibitor]	-15.1%	-5.3%	4.1
39	COc1ccc2c(c1)c(CC(=O)Nc1ccccc1OC)c(C)n2C(=O)c1ccc(Cl)cc1	2.9	·	3.7	3.8%[15.4 µM]	?	-0.5%	-5.1
40	C/C(=N/Nc1ncc(Br)cn1)c1ccc(Br)cc1	2.0	-1.0%	2.2	-3.3%[15.4 µM]	-5.2%	5.7%	5.5
41	C=CCn1cnc2sc(C(=O)Nc3ccccc3OC)c(C)c2c1=O	-10.8	-1.7%	1.9	-0.2%	-3.7%	-19.3%	-3.4
42	CCCCC(c1nnnn1CCOC)N1CCN(C)CC1 (stereo not given)	12.9	-3.4%	1.6	-24.4%	1.0%	20.8%	-0.7
43	Cc1[nH]c2ccccc2c1-c1nc2ccccc2[nH]1	?	15.8µM*	5.5	-6.0%	?	-7.1%	-20.2
44	CCCCN(CC)S(=O)(=O)c1ccc2c(c1)n(C)c(=O)c(=O)n2C	9.4	4.1%	-1.4	11.3%	3.4%	3.6%	-8.4
45	COc1ccc(-c2cc(C(F)(F)F)nc(SCC(=O)Nc3ccc4c(c3)OCO4)n2)cc1OC	-3.6	-12.6%	-0.6	11.6%	17.0%	-26.8%	10.4
46	Cc1ccccc1C(=O)NC(=S)Nc1ccc2[nH]c(=O)[nH]c2c1	-6.0	0.9%	1.2	1.6%	8.6%	-3.4%	-5.4
47	CSc1ccccc1OCc1cc(C(=O)N(C)CCn2nc(C)cc2C)no1	-1.0	-1.8%	·	?	0.4%	-2.9%	-8.3
48	CC(=O)c1ccc(-n2c(CCC(=O)O)ccc2-c2ccc(Cl)cc2)cc1	14.7	-0.2%	2.7	-7.7%	?	2.0%	4.7
49	O=C(NCCCN1CCOCC1)c1cc2c([nH]c3ccccc32)c(-c2cccc(Br)c2)n1	0.7	3.7%	-0.2	-15.5%	?	-20.4%	-8.2
50	CCCCCn1c(N2CCCC2)nc2c1c(=O)n(C)c(=O)n2C	5.4	0.1%	1.4	6.6%[15.4 µM]	?	5.8%	-5.7
51	C1CCc2nnc(-c3nnc4n3CCCCC4)n2CC1	-9.3	-5.9%	2.2	-14.4%	6.2%	1.3%	1.8
52	CCOC(=O)C1=C(N)n2c(s/c(=C\c3cccs3)c2=O)=C(C(=O)OCC)C1c1cccs1 (stereo not given)	-5.0	0.5%	10.6	-19.7%	18.0%	12.0%	-7.2
53	CC(=O)C1=C(O)C(=O)N(c2ccc(Br)cn2)C1c1ccc(Br)cc1 (stereo not given)	7.4	-2.1%	10.0	?	8.5%	?	-9.2
54	Cc1ccc(-n2c(O)c(/C=N/n3cnnc3)c3ccccc3c2=O)cc1	?	?	?	?	-8.3%&-4.6%	7.9%&-32.2%	-8.4&5.1
55	CC(=O)Nc1ccc(SCc2csc(C)n2)cc1	8.8	·	9.6	-2.1%[15.4 µM]	-3.6%	-10.1%	-5.3
56	CC(C)Nc1nnc(Sc2ccc(Cl)cc2[N+](=O)[O-])s1	26.3	0.8%	7.4	-3.1%	26.5%	-10.8%	6.4
57	COc1ccc2cc(C(=O)C3CCCN(C(=O)CCc4ccccn4)C3)ccc2c1 (stereo not given)	1.5	·	-3.7	-12.3%[15.4 µM]	4.47µM*	-1.3%	-2.7
58	O=C(Cc1n[nH]c(=O)c2ccccc12)OCC(=O)c1ccc(OC(F)F)cc1OC(F)F	-11.8	-2.4%	·	-8.9%[15.4 µM]	2.5%	·	-8.3

# Bioassay records (PubChem)
